Beta apoptosis = beta cell apoptosis inhibition. INS-1E cytokine-induced death, ATP luminescence, 48 h; percent of positive-control rescue, neutral wells zero. protection from apoptosis, % (no concentration beside the values). 300,000 tested, 0.8% active;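 active = all replicates at 75% or more, or half of them and the mean; inconclusive = half reach 75% but not the mean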;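 note: 0% = cytokine-treated negative control wells and 100% = positive control rescue; higher means more ATP so stronger rescue from cytokine killing; wells of about 40 µL received 100 nL stock; the first replicate is given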
rRNA inh HTS = selective bacterial rRNA inhibition in E. coli. 350,000 tested, 1.6% active. GFP signal change (wild-type ribosome), % (no concentration beside the values). E. coli WT GFP vs humanized-ribosome RFP mutants, fluorescence, 24 h; hits give low values; DMSO median 0, no signal -100;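 active = significant combined selectivity score with lowered wild-type GFP, culture density cut under 30%, mutant RFP and density less affected; inactive = any of these conditions unmet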; note: one replicate is shown; some compounds called inactive have numbers as strong as hits
Bfl-1 A1 inh = inhibitors of the anti-apoptotic protein A1, read as caspase activation; MEF A1-2A-BIM cells, Caspase-Glo 3/7 luminescence, 3 h; percent of clofoctol response, vehicle zero; caspase activation, % (no concentration beside the values); 330,000 tested, 0.066% active; AID 2462;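 active = over half of replicate activation scores above 10%, or exactly half above 10 with the replicate mean above 10; inconclusive = replicate mean below 10 yet half the replicates above 10; inactive = over half of replicates below 10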;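 note: wells of about 30 µL received 50 nL stock; many hits fall short of the cut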
T cruzi repl = blocks replication of Trypanosoma cruzi | T. cruzi beta-gal in NIH3T3, luminescence, 90 h | inhibition, % (no concentration beside the values) | 300,000 tested, 1.4% active | AID 1885;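 active = mean inhibition across valid replicates above about 55%, limit read from the data; inconclusive = mean below that limit but half or more replicates reach it; inactive = mean below it, under half of replicates reach it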;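 note: signal also drops with host cell toxicity which is not excluded here; 0% = plate median of DMSO wells and 100% = zero luminescence signal; higher percent means less beta-gal luminescence so fewer parasites; stock transfer was 50 nL into about 50 µL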
Vif A3G = HIV-1 Vif–A3G interaction blockers – biochemical, TR-FRET, GST-Vif 1-94, biotin-A3G peptide, dose response retest, primary screen (AID 1117319) | TR-FRET GST-Vif / biotin-A3G peptide binding; higher % means a stronger effect; test concentration not given here; strong numbers were not always called active | one-dose inhibition, %; IC50 in µM for titrated hits | 260,000 tested, 0.57% active;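 active = above the screen mean plus three standard deviations and confirmed in dose response; inconclusive = results disagree or hit not tested in dose response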;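 note: Vif residues 1-94 fused to GST binding biotinylated APOBEC3G peptide 110-148; 0% = full assay without inhibitor and 100% = GST in place of GST-Vif; retest series ran down from 100 µM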
RanGTP-Imp inh = disruptors of Ran-importin-beta complex formation – biochemical, FRET, CFP-Ran, YFP-importin-beta, homogeneous, primary screen; cell-free CFP-Ran/YFP-importin-beta FRET ratio; inhibition, % (no concentration beside the values); 300,000 tested, 1.1% active;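 active = most replicates above 15%; inconclusive = exactly half above 15%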;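 note: 0% = DMSO wells and 100% = Ran loaded with GDP instead of GTP; wells of about 40 µL received 100 nL stock; the first replicate is given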
MLL AF4-AF9 inh = blocks AF4 peptide binding to human AF9. 350,000 tested, 0.47% active. AlphaScreen, biotin-AF4 peptide binding to FLAG-AF9. P42568. inhibition, % at 10 µM;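 active = every replicate reaching a set inhibition limit, whatever the replicate mean, cut at about 25% in these data; inconclusive = mean inhibition reaches that limit but some replicates miss it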;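 note: 0% = plate neutral control median and 100% = total signal loss; the record names both 10 and 1 µM as test concentration; the first replicate is given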
Target sequence (P42568 whole entry, looked up): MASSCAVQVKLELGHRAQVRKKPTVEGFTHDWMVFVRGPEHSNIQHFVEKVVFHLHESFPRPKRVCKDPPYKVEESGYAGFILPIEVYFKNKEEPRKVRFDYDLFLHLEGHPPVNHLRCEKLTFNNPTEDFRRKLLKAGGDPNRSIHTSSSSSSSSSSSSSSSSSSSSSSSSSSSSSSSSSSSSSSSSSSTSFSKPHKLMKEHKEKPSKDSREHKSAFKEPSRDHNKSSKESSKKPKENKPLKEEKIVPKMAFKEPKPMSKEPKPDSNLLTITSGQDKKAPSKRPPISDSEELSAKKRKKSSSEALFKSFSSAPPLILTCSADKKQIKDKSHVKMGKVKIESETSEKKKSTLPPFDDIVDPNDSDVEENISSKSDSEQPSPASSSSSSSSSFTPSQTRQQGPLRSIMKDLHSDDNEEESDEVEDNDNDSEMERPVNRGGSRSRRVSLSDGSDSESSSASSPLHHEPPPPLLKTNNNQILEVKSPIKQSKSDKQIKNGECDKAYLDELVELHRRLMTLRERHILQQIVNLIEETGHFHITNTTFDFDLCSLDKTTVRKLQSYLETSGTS
Calb FLC = C. albicans growth modulation with fluconazole. C. albicans CaCi-2 (fluconazole-resistant clinical isolate) + fluconazole, Alamar Blue growth, 48 h. growth inhibition, % (no concentration beside the values). 300,000 tested, 0.57% active. AID 1979;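 active = most replicates above 75%; inconclusive = exactly half above 75%; inactive = most below 75%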;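 note: all wells also contain fluconazole at 8 µg/ml as a sub-toxic cotreatment; 0% = median of DMSO wells and 100% = median of geldanamycin control wells; wells of about 8 µL received 7.5 nL stock; the first replicate is given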
rRNA inh HTS OD600 = recorded beside rRNA inh HTS, whose call it bears; OD600 change, %; measured here: OD600 growth;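 optical density of the mix in the first replicate; 0 = DMSO median and -100 = no signal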
rRNA inh HTS RFP = further read-out of rRNA inh HTS, marked with its call; RFP signal change, %; measured here: RFP humanized mutant strains;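 first replicate; 0 = DMSO median and -100 = no signal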
* = called active by the depositor. A portion of the library, so the mix of outcomes need not match the whole.

Cc1cc(=O)oc2cc(OCC(=O)NCCCN3CCOCC3)ccc12 was read as Beta apoptosis 0, Bfl-1 A1 inh -0.3, T cruzi repl -5, Vif A3G 2%, RanGTP-Imp inh -1.2 and Calb FLC 4.
CN(Cc1ccccc1C#N)S(=O)(=O)c1cccs1 was read as rRNA inh HTS -1, Bfl-1 A1 inh 1.6, T cruzi repl 1, RanGTP-Imp inh -1.1, MLL AF4-AF9 inh -2.1, Calb FLC 7, rRNA inh HTS OD600 0 and rRNA inh HTS RFP 1.2.
O=C(O)c1ccc(CSc2ncnc3c2cnn3Cc2ccccc2)cc1 was read as rRNA inh HTS -12, T cruzi repl -11, RanGTP-Imp inh 2.4, MLL AF4-AF9 inh -9.7, Calb FLC -12, rRNA inh HTS OD600 -13 and rRNA inh HTS RFP -7.0.
Screening CN(C)C=NC(=O)c1cc(C(=O)c2ccc(Cl)cc2Cl)c[nH]1 returned Beta apoptosis -7, rRNA inh HTS -47, Bfl-1 A1 inh 3.3, T cruzi repl -14, Vif A3G 0%, RanGTP-Imp inh 3.3, MLL AF4-AF9 inh -1.8, Calb FLC -2, rRNA inh HTS OD600 -47 and rRNA inh HTS RFP -17.
COc1ccc(-c2ccc3c(c2)S(=O)(=O)c2cccc(C(=O)N4CCN(C5CCCCC5)CC4)c2C3=O)cc1OC was read as Beta apoptosis -2, rRNA inh HTS -6, Bfl-1 A1 inh -0.5, MLL AF4-AF9 inh 8.2, rRNA inh HTS OD600 -11 and rRNA inh HTS RFP 16.
`O=C(Nc1cc(S(=O)(=O)N2CCOCC2)ccc1Cl)c1cc2ccccc2o1` gave Beta apoptosis 7, rRNA inh HTS -3, Bfl-1 A1 inh -0.6, MLL AF4-AF9 inh -3.8, rRNA inh HTS OD600 -5 and rRNA inh HTS RFP 1.2.
`CCOc1ccc(-c2n[nH]c(C)c2-c2ccccn2)c(O)c1` gave Beta apoptosis -4, rRNA inh HTS -3, Bfl-1 A1 inh 0.1, T cruzi repl -2, Vif A3G 0%, RanGTP-Imp inh 2.2, MLL AF4-AF9 inh 0.6, Calb FLC 10, rRNA inh HTS OD600 -6 and rRNA inh HTS RFP 0.3.
`O=C(c1cnn(-c2ccccc2)c1)c1cc(F)ccc1O` gave Beta apoptosis 0, rRNA inh HTS 6, Bfl-1 A1 inh -4.0, T cruzi repl 8, Vif A3G -8%, RanGTP-Imp inh -3.6, MLL AF4-AF9 inh 1.5, Calb FLC -6, rRNA inh HTS OD600 10 and rRNA inh HTS RFP -3.4.
Screening NC(=O)COc1c(-c2ccco2)oc2ccccc2c1=O returned Beta apoptosis -6, rRNA inh HTS 3, Bfl-1 A1 inh 0.2, T cruzi repl -3, Vif A3G -4%, RanGTP-Imp inh 4.2, MLL AF4-AF9 inh -0.4, Calb FLC -2, rRNA inh HTS OD600 -11 and rRNA inh HTS RFP 2.9.
Screening O=C(CNS(=O)(=O)c1ccc(F)cc1)N1CCCC1 returned Beta apoptosis 3, rRNA inh HTS 27, Bfl-1 A1 inh -0.1, T cruzi repl -17, RanGTP-Imp inh 0.1, MLL AF4-AF9 inh -8.7, Calb FLC -2, rRNA inh HTS OD600 21 and rRNA inh HTS RFP -0.6.
`COc1ccccc1NC(=O)N(CCN1CCOCC1)Cc1cc2cc(C)cc(C)c2[nH]c1=O` gave Beta apoptosis -9, rRNA inh HTS 11, Bfl-1 A1 inh 0.7, T cruzi repl 5, Vif A3G 8%, RanGTP-Imp inh -0.2, MLL AF4-AF9 inh -6.3, Calb FLC 7, rRNA inh HTS OD600 15 and rRNA inh HTS RFP 5.0.
For COc1cccc(NC(=O)CCN2C(=O)c3cccc([N+](=O)[O-])c3C2=O)c1 the results were Beta apoptosis 4, rRNA inh HTS 10, Bfl-1 A1 inh 0.8, T cruzi repl 0, Vif A3G 2%, RanGTP-Imp inh -1.3, MLL AF4-AF9 inh -1.9, Calb FLC 2, rRNA inh HTS OD600 8 and rRNA inh HTS RFP -5.5.
CCCCN(C(=O)CSc1ncnc2sccc12)c1c(N)n(Cc2ccccc2)c(=O)[nH]c1=O was read as Beta apoptosis 6, rRNA inh HTS 8, Bfl-1 A1 inh -0.2, MLL AF4-AF9 inh -3.9, rRNA inh HTS OD600 10 and rRNA inh HTS RFP -2.5.
Screening CCS(=O)(=O)N1CCN(c2ccc([N+](=O)[O-])c(NCc3ccccc3)c2)CC1 returned Beta apoptosis 12, Bfl-1 A1 inh -1.2, T cruzi repl -1, Vif A3G 6%, RanGTP-Imp inh 4.3 and Calb FLC -1.
For Cc1cc2cc(CCNC(=O)c3cccc([N+](=O)[O-])c3)c(=O)[nH]c2cc1C the results were Beta apoptosis 5, Bfl-1 A1 inh -0.1, T cruzi repl 9, RanGTP-Imp inh -0.8 and Calb FLC -5.
For N#CCCn1cc(/C=N/N=C2\NC(=O)C(CC(=O)O)S2)c(-c2ccc(F)cc2)n1 (centres undefined) the results were Beta apoptosis 2, rRNA inh HTS 8, Bfl-1 A1 inh -0.3, T cruzi repl -9, RanGTP-Imp inh 1.6, MLL AF4-AF9 inh 0.5, Calb FLC -3, rRNA inh HTS OD600 2 and rRNA inh HTS RFP -2.4.
Screening O=S(=O)(NCc1ccco1)c1ccc(Cl)nc1 returned Beta apoptosis -2, Bfl-1 A1 inh 0.9, T cruzi repl -2, RanGTP-Imp inh -5.3 and Calb FLC 2.
CCOC(=O)c1c(NC(C)=O)no[n+]1[O-] was read as Beta apoptosis -2, Bfl-1 A1 inh -0.2, T cruzi repl -8, Vif A3G inconclusive, RanGTP-Imp inh 5.1 and Calb FLC -8.
`NC(=O)C1CC(=O)N(c2ccc(OCc3c(Cl)cccc3Cl)cc2)C1` (centres undefined) gave Beta apoptosis -2, rRNA inh HTS -18, Bfl-1 A1 inh -0.2, T cruzi repl -17, Vif A3G 10%, RanGTP-Imp inh -1.5, MLL AF4-AF9 inh -1.4, Calb FLC -1, rRNA inh HTS OD600 -19 and rRNA inh HTS RFP -1.0.
`COc1ccc(OCC(Cn2cnc3ccccc32)OC(C)=O)cc1` (centres undefined) gave Beta apoptosis 4, rRNA inh HTS -13, Bfl-1 A1 inh 0.9, T cruzi repl -8, Vif A3G inconclusive, RanGTP-Imp inh -10, MLL AF4-AF9 inh -0.2, Calb FLC -9, rRNA inh HTS OD600 -17 and rRNA inh HTS RFP 1.8.
For NC1=NC(=O)C(Cc2cc(Cl)ccc2Cl)S1 (centres undefined) the results were Beta apoptosis -14, Bfl-1 A1 inh 0.2, T cruzi repl -2, Vif A3G -3%, RanGTP-Imp inh 2.2 and Calb FLC 5.
`CC1CN(S(=O)(=O)c2cccc(C(F)(F)F)c2)C(C)N1C(=O)N1CCOCC1` (centres undefined) gave Beta apoptosis 0, rRNA inh HTS 3, Bfl-1 A1 inh -0.6, T cruzi repl 11, RanGTP-Imp inh -0.8, MLL AF4-AF9 inh -5.5, Calb FLC -1, rRNA inh HTS OD600 7 and rRNA inh HTS RFP -0.6.
`C=CC[C@]12C=C(OC)C(=O)C(OC)=C1O[C@@H](c1ccc3c(c1)OCO3)[C@H]2C` gave Beta apoptosis -3, rRNA inh HTS 2, Bfl-1 A1 inh -0.1, T cruzi repl -21, RanGTP-Imp inh inconclusive, MLL AF4-AF9 inh -0.8, Calb FLC 8, rRNA inh HTS OD600 7 and rRNA inh HTS RFP -2.9.
For O=C(Cc1ccc(NC2=NC3CS(=O)(=O)CC3S2)cc1)NCc1ccc(Cl)cc1 (centres undefined) the results were Beta apoptosis -6, rRNA inh HTS 6, T cruzi repl 11, RanGTP-Imp inh 3.5, MLL AF4-AF9 inh -15, Calb FLC -2, rRNA inh HTS OD600 14 and rRNA inh HTS RFP 0.8.
Screening Cc1cc(C)nc(SCC(=O)Nc2ccnc3ccccc23)n1 returned Beta apoptosis 102*, rRNA inh HTS -10, Bfl-1 A1 inh -0.7, T cruzi repl -42, Vif A3G 6%, RanGTP-Imp inh 1.8, MLL AF4-AF9 inh 0.3, Calb FLC 10, rRNA inh HTS OD600 -5 and rRNA inh HTS RFP 1.1.
Screening CCC(=O)N1CCN(c2nc(C)nc3sc(C)c(C)c23)CC1 returned Beta apoptosis -1, rRNA inh HTS -10, Bfl-1 A1 inh -0.5, T cruzi repl -1, Vif A3G 1%, RanGTP-Imp inh 1.9, MLL AF4-AF9 inh 1.4, Calb FLC 21, rRNA inh HTS OD600 -1 and rRNA inh HTS RFP -3.1.
`CC1CCN(C(=O)COC(=O)c2cc3ccccc3oc2=O)CC1` gave Beta apoptosis -1, rRNA inh HTS 16, Bfl-1 A1 inh -0.4, Vif A3G -5%, MLL AF4-AF9 inh 2.4, rRNA inh HTS OD600 11 and rRNA inh HTS RFP 2.1.
Screening CN(C)C(CNC(=O)c1cccc(C(F)(F)F)c1)c1ccco1 (centres undefined) returned Beta apoptosis -9, rRNA inh HTS 11, Bfl-1 A1 inh -0.9, T cruzi repl -5, Vif A3G 1%, RanGTP-Imp inh -3.1, MLL AF4-AF9 inh -2.2, Calb FLC -4, rRNA inh HTS OD600 11 and rRNA inh HTS RFP 1.7.
For CCOC(=O)CCCNC(=O)COC(=O)c1cc(C)cc(C)c1 the results were Beta apoptosis -1, Bfl-1 A1 inh 0.6, T cruzi repl -19, Vif A3G 13%, RanGTP-Imp inh -1.6 and Calb FLC -27.
C=CCSc1nccc(-c2nn(-c3ccc(C)cc3)ccc2=O)n1 was read as Beta apoptosis 10, Bfl-1 A1 inh -0.6, T cruzi repl -13, Vif A3G -10%, RanGTP-Imp inh -3.4 and Calb FLC -8.
CCCC(=O)NCCc1nc2cc([N+](=O)[O-])ccc2n1C was read as Beta apoptosis 2, rRNA inh HTS -6, Bfl-1 A1 inh 1.0, T cruzi repl 3, RanGTP-Imp inh -2.1, MLL AF4-AF9 inh -1.8, Calb FLC 0, rRNA inh HTS OD600 -4 and rRNA inh HTS RFP -2.4.
Screening COc1ccccc1-n1cc(CN2CCCC(CO)(Cc3cccc(Cl)c3)C2)cn1 (centres undefined) returned Beta apoptosis 5, rRNA inh HTS -4, Bfl-1 A1 inh -0.1, T cruzi repl inconclusive, Vif A3G 4%, RanGTP-Imp inh -5.1, MLL AF4-AF9 inh 13, Calb FLC -3, rRNA inh HTS OD600 -6 and rRNA inh HTS RFP 4.6.
For CCCCNC1=C(Br)C(=O)CC(C)(C)C1 the results were Bfl-1 A1 inh -0.3, T cruzi repl 1, Vif A3G 3%, RanGTP-Imp inh -0.7 and Calb FLC 11.

Screens from PubChem.
